Bioassay records from PubChem BioAssay.
HNF4A DNA FP: change in binding of human HNF4 alpha to DNA | P41235 | HNF4a-FITC DNA binding, fluorescence polarization, 1 h | activity change, % at 10 µM | 360,000 tested, 0.3% active; in the data active means activity change above about 30%, passing the limit was not always enough;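 further: controls were the assay level and a saturating level of protein; the project sought stronger binding though the title names inhibitors; some compounds called inactive have numbers as strong as hits; positive values seem to mean higher polarization but the record does not say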
Target sequence (P41235 whole entry, looked up): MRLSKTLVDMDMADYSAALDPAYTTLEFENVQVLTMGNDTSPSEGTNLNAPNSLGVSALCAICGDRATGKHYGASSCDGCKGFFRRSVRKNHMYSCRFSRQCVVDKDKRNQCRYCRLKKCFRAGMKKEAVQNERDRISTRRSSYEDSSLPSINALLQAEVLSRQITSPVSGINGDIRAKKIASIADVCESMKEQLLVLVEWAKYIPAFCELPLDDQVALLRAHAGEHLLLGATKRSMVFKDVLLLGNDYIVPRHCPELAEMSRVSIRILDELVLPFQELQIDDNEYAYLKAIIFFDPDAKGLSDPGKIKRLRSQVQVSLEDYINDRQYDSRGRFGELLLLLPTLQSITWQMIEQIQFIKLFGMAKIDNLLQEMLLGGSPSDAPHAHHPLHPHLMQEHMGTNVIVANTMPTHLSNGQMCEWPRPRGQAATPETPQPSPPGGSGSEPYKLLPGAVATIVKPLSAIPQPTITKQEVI
FGF22 binding: binders of recombinant human FGF22 by thermal shift | Q9HCT0 | SYPRO orange fluorescence; percent of sucrose octasulfate shift, DMSO zero | calls only at 9.99 µM | 340,000 tested, 1.5% active;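 active means melting point raised past a set limit in the mean and every replicate; three in four hits are not shown here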
ALR H2O2 inh: blocks human ALR sulfhydryl oxidase activity. purified ALR, DTT oxidation, H2O2 HRP-luminol luminescence. P55789. inhibition, % (no concentration beside the values). 290,000 tested, 3.8% active;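 active means mean and each replicate at 75% or more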;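 further: stock transfer was 7.5 nL into about 7.5 µL; 0% = neutral wells and 100% = wells with inactivated enzyme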
Target sequence (P55789 whole entry, looked up): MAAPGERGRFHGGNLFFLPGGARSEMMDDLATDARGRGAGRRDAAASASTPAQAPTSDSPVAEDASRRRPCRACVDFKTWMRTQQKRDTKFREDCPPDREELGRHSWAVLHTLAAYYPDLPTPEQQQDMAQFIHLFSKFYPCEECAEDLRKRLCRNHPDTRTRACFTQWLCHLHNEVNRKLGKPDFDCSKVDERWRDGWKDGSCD
B2AR ag: agonists of human beta-2 adrenergic receptor inducing internalization; P07550; Am2.2-beta2AR cells, FAP receptor internalization, flow cytometry; reference of the scale not given here; response, % (no concentration beside the values); 340,000 tested, 0.43% active; AID 504454;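 active means response above a set limit, near 3 SD of response in nonfluorescent compounds, cut at about 42% in these data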;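 further: stock transfer was 100 nL into about 11 µL; a reference agonist was the positive control; negative values mostly stem from fluorescent compounds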
UCH37 DUB inh: human UCH37 deubiquitinating enzyme inhibition. Q9Y5K5. purified proteasome/UCH37, Ub-AMC cleavage fluorescence. inhibition, % (concentration not given with the values). 330,000 tested, 0.33% active;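 active means mean of two replicates above 20%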;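 further: 0% = compound-free wells with enzyme and 100% = wells lacking proteasome; stock transfer was 100 nL into about 20 µL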
Target sequence (Q9Y5K5 whole entry, looked up): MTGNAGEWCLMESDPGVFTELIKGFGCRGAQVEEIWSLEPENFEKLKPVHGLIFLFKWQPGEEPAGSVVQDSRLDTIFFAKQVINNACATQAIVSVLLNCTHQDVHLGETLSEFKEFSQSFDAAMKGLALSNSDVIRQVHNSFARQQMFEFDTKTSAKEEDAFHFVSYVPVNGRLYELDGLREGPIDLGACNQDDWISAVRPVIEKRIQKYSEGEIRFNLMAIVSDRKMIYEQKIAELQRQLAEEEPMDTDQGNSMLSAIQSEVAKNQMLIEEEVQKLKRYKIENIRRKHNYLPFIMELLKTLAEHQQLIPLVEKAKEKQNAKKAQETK
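Assay system: Proteasome-bound UCH37. Buffer or medium: pH 7.4 Tris-HCl (50 mM) with ovalbumin, ATP-MgCl2, DTT. Incubation: 30 min preincubation with enzyme, 25 min cleavage at room temperature. Measured by: fluorescence, ex 355 nm, em 460 nm. Read-out basis: percent inhibition. Control set: wells without proteasome as full block, compound-free enzyme plus substrate as uninhibited.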
E coli growth: inhibitors of Escherichia coli growth | AID 1053175 | 330,000 tested, 0.21% active | OD600 absorbance (concentration not given with the values) | OD600, 23 h; stronger effect = lower value;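 active means OD600 absorbance below the run mean of sample wells minus 3.6 SD, in any replicate, cut at about 0.56 in these data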;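 further: stock transfer was 300 nL into about 60 µL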
LANA-H2B inh: blocks KSHV LANA binding to histone H2A/H2B. cell-free LANA-H2A/H2B peptide, fluorescence polarization. 320,000 tested, 0.6% active. Q9QR71. inhibition, % (concentration not given with the values); in the data active means inhibition mostly above about 10%, no sharp cut-off; inactive means mostly below about 6.7%;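 further: stock transfer was 7.5 nL into about 10 µL; 0% = median of vehicle wells and 100% = median of positive control wells; one replicate is shown; the record names a cut of 25% in any replicate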
An asterisk follows results filed as active; i = inactive; . = no result given. Not all compounds are listed; count on the stated rates, not on these rows.

SMILES	HNF4A DNA FP	FGF22 binding	ALR H2O2 inh	B2AR ag	UCH37 DUB inh	E coli growth	LANA-H2B inh
O=C(CN1C(=O)NC2(CCCCC2)C1=O)NCCc1ccccc1	2.0	i	1.2	-4.5	1.1	0.719	2.7
Cc1ccc(S(=O)(=O)NC2(C(F)(F)F)NC(=O)N(c3ccccc3F)C2=O)cc1 (centres undefined)	0.3	i	0.8	-2.0	2.8	0.657	2.1
O=C(NCCC1=CCCCC1)C(=O)c1c[nH]c2ccccc12	-1.5	.	8.7	-18.0	6.2	0.754	-3.1
c1ccc2oc(C3=NNC(=NC4CC4)SC3)cc2c1	7.4	i	.	-1.0	8.7	0.715	-0.6
CCOc1ccc(/C(=N\O)C(C)NO)cc1 (centres undefined)	-1.1	.	1.4	7.4	.	.	8.4
CCOC(=O)[C@H]1[C@H]2COc3ccc(Br)cc3[C@@H]2N2C(=O)CN(Cc3ccc(F)cc3)C(=O)[C@@]12C	0.2	i	-2.0	-2.8	3.6	.	-7.0
O=C(O)CCC(=O)Nc1ccccc1C(=O)NCc1ccco1	-2.0	.	-3.1	7.6	0.6	0.676	1.5
CC(=O)Cc1nsc(NC(=O)c2cn(-c3ccccc3)nc2-c2ccc(Br)cc2)n1	0.4	.	-13.3	-4.8	1.3	0.714	1.5
CCN1C(=O)C(O)(CC(=O)c2ccccn2)c2ccccc21 (centres undefined)	-0.2	.	-0.7	2.5	-2.4	0.725	0.4
CCC(C)c1ccccc1NC(=S)NC(=O)c1ccco1 (centres undefined)	1.0	i	3.6	7.1	4.9	0.718	-6.0
CC1(C)CC(=O)C2=C(C1)c1c(ccc3ccccc13)NC2c1ccc(C(=O)O)cc1 (centres undefined)	-4.3	i	-12.3	1.5	i	0.663	2.8
O=S(=O)(c1ccc(S(=O)(=O)N(Cc2ccccc2)Cc2ccco2)cc1)N1CCCC1	-2.6	.	94.3*	-10.3	-0.3	0.76	3.5
Cc1cnc(CN2CCc3c([nH]c4ccccc34)C2C2CCCCC2)[nH]1 (centres undefined)	-2.4	i	17.3	5.8	-3.1	0.653	-1.0
CC(C)(C)CC(=O)Nc1cc2c3c(c1)CCN3C(=O)CC2	1.8	i	3.3	0.0	-0.4	0.716	-2.1
COC(=O)c1cn[nH]c1NC(=S)Nc1ccc(C)cc1Cl	-1.8	.	-1.2	-3.0	2.7	0.709	-1.1
CCCc1nc(N2CCOCC2)c(C#N)c2c1CCCC2	31.9	.	-3.2	1.6	-37.5	0.709	1.8
CCc1nc2ccc(C(=O)NCCc3ccc(OC)cc3)cc2nc1CC	7.1	i	2.7	7.3	2.7	0.702	1.6
Cc1cccc(C2CN(C)CCc3c2cc(O)c(O)c3Cl)c1 (centres undefined)	2.4	i	98.3*	-1.3	0.4	0.655	-17.7
O=C1NCCCC2c3c(cc(Br)c(O)c3Br)OC12N1CCOCC1 (centres undefined)	0.2	.	94.1*	4.9	2.3	0.664	5.2
Clc1ccc(OCCCn2cncn2)cc1Cl	1.3	.	-13.4	-2.8	3.4	0.72	-4.5
O=C(CSc1nnc(-c2ccncc2)n1C1CCCCC1)Nc1cccc(O)c1	-3.5	.	-0.2	-7.4	1.7	0.638	1.1
O=C(CCCl)Nc1cc(SCCO)cc([N+](=O)[O-])c1	1.2	.	-6.1	-9.3	4.8	0.688	7.1
Cc1c(CCO)c(=O)n2n1CCCC2	-2.2	i	.	-7.8	.	.	.
CCCC(=O)N(CCN1CCOCC1)c1nc2c(OCC)cccc2s1	3.3	.	0.6	-1.9	3.4	0.706	1.5
O=C(CCC1CCCCC1)NCCS(=O)(=O)N1CCN(c2ccc(F)cc2)CC1	-4.2	i	-0.2	-4.7	4.4	0.655	-5.7

The list goes on.
SMILES	HNF4A DNA FP	FGF22 binding	ALR H2O2 inh	B2AR ag	UCH37 DUB inh	E coli growth	LANA-H2B inh
CC(=O)c1ccc(N2CCN(c3ccnc4cc(Cl)ccc34)CC2)cc1	2.8	i	1.6	19.9	1.3	0.673	0.9
CCc1nc2ccccc2c(C(=O)Nc2ccc(C)cc2)c1C	2.3	i	-0.1	-3.3	1.4	0.717	-0.1
CCOC(=O)c1c(CC(C)C)csc1/N=C/C1=C(O)CCCC1=O	2.1	i	5.8	-3.0	.	.	2.5
CCc1cccc(NC(=O)CN(C)S(=O)(=O)c2cccc3nsnc23)c1	1.3	.	-6.7	-1.4	2.3	0.708	0.6
Cn1cc(Cl)c(C(=O)OCC(=O)Nc2ccccc2)n1	-0.9	.	-0.4	18.2	4.0	0.756	-0.3
CC(=O)c1cccc(NC(=O)c2ccc(N(Cc3ccccc3C)S(C)(=O)=O)cc2)c1	-0.5	.	-5.6	13.1	-1.6	0.703	-4.9
CCCn1c(N)c(C(=O)CN2CCc3ccccc3C2)c(=O)n(C)c1=O	-4.1	i	-9.0	-1.6	2.5	0.639	-0.3
CCC1CCCCN1CCCNC(=O)Cn1c(=O)c2cccn2c2cccnc21 (centres undefined)	-2.7	i	-1.9	1.6	-3.3	0.707	-1.9
Cc1nn2c(nc(N3CCOCC3)c3ccccc32)c1C=C(C#N)C#N	-0.3	i	2.8	-22.4	-11.0	0.693	0.4
Cc1nnc(NC(=O)c2oc3c(ccc4ccccc43)c2C)s1	-2.9	.	-13.2	10.8	-170.7	0.64	-0.9
O=C(CCn1c(=O)c2cccn2c2ccc(F)cc21)NCCc1ccccc1	1.0	i	-13.1	-5.4	-4.4	0.693	-2.3
CCCCOC(=O)CSc1nc2ccccc2o1	3.7	i	.	-1.1	1.5	0.676	3.2
COc1ccccc1CCn1cc(C#N)c(=O)[nH]c1=O	3.4	i	-7.3	-1.5	2.9	0.637	4.5
CCn1c(=O)c(C(=O)Nn2c(C)nc3ccccc3c2=O)c(O)c2ccccc21	3.7	.	.	-1.8	1.0	0.776	1.2
O=C(OCC(=O)N1CCOCC1)c1cc(S(=O)(=O)N2CCOCC2)c(Cl)cc1Cl	0.6	i	.	11.2	0.7	0.694	.
CCCCOC(=O)c1ccc(NC(=O)C(CCS(C)(=O)=O)NC(C)=O)cc1 (centres undefined)	4.6	.	2.4	-5.5	0.8	0.78	-3.4
Cc1ccc(C(=O)Nc2ccccc2C(=O)NCc2ccco2)cc1S(=O)(=O)N1CCCCC1	-0.7	.	7.5	6.6	1.9	0.678	8.6
C[C@H](CO)N1C[C@H](C)[C@@H](CN(C)Cc2ccncc2)Oc2c(NS(=O)(=O)c3ccc(F)cc3)cccc2C1=O	-4.9	i	.	2.5	4.1	0.709	-3.1
COc1ccc(CNC(=O)c2ccc(NC(=O)C3CCCO3)cc2)cc1 (centres undefined)	-4.8	.	-6.7	-1.7	1.2	0.662	-0.1
Cc1cc(C)nc(CCNC(=O)c2cc(COc3c(C)cccc3C)on2)n1	0.7	i	-8.0	-8.4	0.9	0.701	-1.3
CCC(C)NC(=O)Cn1c(=O)n(CCCC(=O)NCc2ccccc2Cl)c(=O)c2ccccc21 (centres undefined)	-1.1	.	-9.2	-5.4	3.8	0.728	-2.7
O=C(CNC(=O)c1ccc(Cl)cc1)NCCCn1ccnc1	-1.8	.	-6.6	3.9	3.8	0.704	-1.2
Cc1n[nH]c(C)c1S(=O)(=O)NCCc1ccc(Cl)cc1	1.0	.	-5.3	-5.4	2.5	0.768	-3.6
COc1ccc(OC)c(S(=O)(=O)N2CCC(C(=O)NC3CCCCCC3)CC2)c1	2.9	i	3.0	3.6	-0.4	0.647	2.7
Cc1ccnc2nc(C(=O)Nc3nnc(CC(C)C)s3)nn12	3.5	.	14.8	-3.9	4.5	0.783	0.8

The results go on:
SMILES	HNF4A DNA FP	FGF22 binding	ALR H2O2 inh	B2AR ag	UCH37 DUB inh	E coli growth	LANA-H2B inh
CC(C)(C)[C@@H]1COC(=O)[C@@H](Cc2ccc(F)cc2)CC/C=C\C[C@@H](CC(=O)N(CCO)Cc2ccccc2)C(=O)N1	3.7	i	1.3	-10.0	3.5	.	2.5
O=C(CSc1cccc[n+]1[O-])c1cccs1	-2.3	i	2.6	-0.9	.	.	0.8
N#Cc1ccccc1NC(=O)C1SC(=Nc2ccccc2)C(C(=O)Nc2ccc(Cl)cc2)=C1N (centres undefined)	8.6	i	1.7	15.5	.	.	5.3
CN1CCN(C2=Cc3ccc(Cl)cc3Sc3ccc(F)cc32)CC1	0.9	.	5.0	17.5	4.2	0.573	-5.3
O=C(Nc1ccnn1C1CCN(Cc2ccccc2OC(F)F)CC1)c1cccnc1	3.0	i	-6.7	-2.7	1.8	0.672	-6.1
COc1cccc(CN(C)C(=O)c2cccc(S(=O)(=O)N3CCN(c4ccccc4)CC3)c2)c1OC	-4.5	i	.	8.0	0.9	0.672	.
O=C(Nc1ccc(Cl)c(Cl)c1)c1ccc(Cn2cc(Cl)cn2)cc1	-0.2	i	.	12.8	0.9	0.644	.
C=CCn1c(-c2cccn(Cc3ccc(Cl)cc3Cl)c2=O)n[nH]c1=S	-2.4	.	.	-1.8	-21.4	0.692	0.4
CC(C)n1c(SCC(=O)Nc2ccccc2N2CCCCC2)nc2c1c(=O)n(C)c(=O)n2C	-1.0	.	6.7	-18.6	1.6	0.717	-0.3
Cc1ccc2oc3c(c(=O)c2c1)C(c1cccs1)N(CCCN(C)C)C3=O (centres undefined)	1.6	.	-9.6	-9.9	-1.4	0.77	3.9
Cc1ccc(-c2noc(CN(C(=O)C34CC5CC(CC(C5)C3)C4)C(C)C)n2)cc1	-1.6	.	0.3	-9.6	3.3	0.749	4.3
CCC(SC1=N/C(=C/c2ccccc2)C(=O)N1c1ccccc1)C(=O)Nc1cc(C)on1 (centres undefined)	3.2	i	4.9	2.7	-19.4	0.659	-3.1
O=C1CC(N2CCN(Cc3ccccc3)CC2)C(=O)N1CCc1ccccc1 (centres undefined)	-3.9	.	0.9	-10.7	0.4	0.701	-1.5
O=C(NNC(=O)c1cccnc1)Nc1ccc([N+](=O)[O-])cc1	2.1	.	14.6	-1.1	9.7	0.641	4.9
CC(C)OC(=O)/C(C#N)=C/c1cn(Cc2ccccc2)c2ccccc12	-1.5	i	-4.7	-3.6	1.7	0.672	0.2
CCOC(=O)N1CCN(C(=O)CN(c2ccc3c(c2)OCO3)S(C)(=O)=O)CC1	2.4	.	0.4	9.2	0.3	0.675	-1.8
Cc1ccc(NC(=O)CN2CCN(c3ccccn3)CC2)c(Cl)c1	-2.9	.	-4.4	-19.6	1.1	0.708	10.4
COCCNC(=O)c1ccccc1NC(=O)COc1ccccc1	1.7	.	-2.8	7.1	-1.9	0.713	-0.6
CC(NC(=O)c1cccc(S(=O)(=O)N2CCCCCC2)c1)c1ccccc1 (centres undefined)	5.6	i	.	-1.7	3.7	0.705	.
Cc1cc(NC(=O)c2ccccc2)nc2c1c(=O)oc1ccccc12	2.1	i	-5.9	-9.9	-1.8	0.72	-1.8
Cc1ccc(C2OC(=O)c3ccccc32)cc1 (centres undefined)	2.6	.	-0.9	-10.1	6.1	0.644	-0.6
CCOC(=O)C(=O)Nc1cccc(C(=O)OCC)c1	0.8	i	-8.5	63.7*	-0.1	0.681	-1.4
CCN(CC)C(=O)Oc1cc(=O)n2c3c(cccc13)CCC2	4.9	.	.	-1.1	-2.4	0.703	.
CCOC(=O)Nc1ccc2c(c1)OCO2	1.7	.	-16.8	-3.0	3.1	0.671	-1.6
CN(C1CCS(=O)(=O)C1)S(=O)(=O)c1cccs1 (centres undefined)	-3.6	i	-1.4	3.2	3.6	0.639	-7.1

Entries listed so far that contain a nitro group on carbon (2):
SMILES	HNF4A DNA FP	FGF22 binding	ALR H2O2 inh	B2AR ag	UCH37 DUB inh	E coli growth	LANA-H2B inh
O=C(CCCl)Nc1cc(SCCO)cc([N+](=O)[O-])c1	1.2	.	-6.1	-9.3	4.8	0.688	7.1
O=C(NNC(=O)c1cccnc1)Nc1ccc([N+](=O)[O-])cc1	2.1	.	14.6	-1.1	9.7	0.641	4.9
